Screens from PubChem BioAssay.
TRPV1 potentiator: enhances activation of the human vanilloid receptor TRPV1; Q8NER1; TRPV1-expressing cells, Fluo-8 calcium influx, capsaicin EC20 potentiation; host cell line not named in the record; control for the full effect not named in the record; potentiation, % at 8.33 µM; 0.02% of 320,000 active; AID 540277; active means potentiation above 80%; inconclusive means 30% to 80%; inactive means below 30%; also: 0% is about no effect
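TRPV1-expressing cells were cultured overnight at 35.5C and loaded with Fluo-8 calcium dye for 40 to 90 min at room temperature. After a 10 s baseline, compound was added and calcium influx was read kinetically for 3 min (ex 480/em 520 nm).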
ClpP mod: qHTS Assay for Activators of ClpP; ATP-dependent Clp protease proteolytic subunit (Bacillus subtilis (strain 168)), P80244; purified B. subtilis ClpP, FRET peptide cleavage, 20 min; Potency, µM (highest dose often 57.5 µM), inactives show top-dose activity change, negative = active; 1.9% of 340,000 active; AID 651965, 2013; active = well fitted falling curve with a large enough effect; inconclusive = small, poorly fitted or top-dose-only effect; inactive = no such curve, though single readings can be large or run the other way; also: potency is read from the fitted curve at half-maximal effect; the source files actives as falling curves though it sought activators and does not explain the sign; nearly all actives have a fitted effect of over 65% in size; many hits overshoot -100%
Target sequence (P80244 whole entry, looked up): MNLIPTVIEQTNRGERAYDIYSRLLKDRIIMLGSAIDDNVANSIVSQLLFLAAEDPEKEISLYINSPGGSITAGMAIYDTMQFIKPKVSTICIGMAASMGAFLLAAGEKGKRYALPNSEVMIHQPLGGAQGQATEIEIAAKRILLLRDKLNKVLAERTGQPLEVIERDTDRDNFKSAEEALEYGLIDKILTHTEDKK
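Purified B. subtilis ClpP, 10 microg/mL final in Tris/HCl pH8 with KCl, BSA, glycerol and Tween-20, cleaved an Abz/nitrotyrosine-quenched decapeptide. Fluorescence (ex 320, em 430) was read at 0 and 20 min at room temperature. Delta was normalized to 5.8 microM ADEP and DMSO/no-enzyme controls.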
gsp ag: gsp mutant agonism. gsp mutant cells, cAMP HTRF, 30 min; control for the full effect not named in the record. 0.13% of 340,000 active. AID 624287. Potency, µM (highest dose often 76.9 µM), without a hit: top-dose activation (cAMP increase), usual class: activators; active = well fitted activation curve with a large enough effect; inconclusive = small, poorly fitted or top-dose-only effect, or another doubt; inactive = no such curve, though single readings can be large or run the other way; cell line not stated here;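 also: phosphodiesterase inhibitor Ro 20-1724 added with compounds to block cAMP breakdown; potency is read from the fitted curve at half-maximal effect; nearly all actives have a fitted effect of over 60% in size; about a fifth of the inactives were tested at one dose only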
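Cells in DMEM/10% FBS with G418 were pretreated with compounds in DMSO plus […] (300 uM stock) for 30 min at 37C. cAMP was measured by HTRF (cAMP-d2 plus anti-cAMP antibody-K) after 30 min at room temperature.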
D2 PAM: human D2 receptor positive allosteric modulation; DiscoveRx D2 beta-arrestin cells, luminescence, 90 min; 100% = 57 uM dopamine signal; potentiation, % (test concentration not listed); 0.23% of 360,000 active; AID 624464; active = potentiation of 50% or more; inconclusive = 30% to 50%; inactive = 30% or less;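 also: compound concentration not given in the record; tested on top of an EC20 dose of dopamine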
Target sequence (P14416 whole entry, looked up): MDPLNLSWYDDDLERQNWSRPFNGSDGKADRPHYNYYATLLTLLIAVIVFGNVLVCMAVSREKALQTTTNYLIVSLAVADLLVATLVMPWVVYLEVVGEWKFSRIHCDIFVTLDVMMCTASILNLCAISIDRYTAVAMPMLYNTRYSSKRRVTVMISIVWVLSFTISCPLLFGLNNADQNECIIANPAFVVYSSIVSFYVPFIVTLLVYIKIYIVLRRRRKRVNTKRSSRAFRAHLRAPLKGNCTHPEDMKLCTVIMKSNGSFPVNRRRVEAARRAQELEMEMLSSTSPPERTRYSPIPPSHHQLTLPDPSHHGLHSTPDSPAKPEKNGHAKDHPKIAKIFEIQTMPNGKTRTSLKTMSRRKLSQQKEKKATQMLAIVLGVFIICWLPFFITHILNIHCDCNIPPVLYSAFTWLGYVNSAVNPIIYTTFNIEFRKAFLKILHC
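PathHunter D2 cells, attached overnight at 37 deg C, received compound in DMSO plus dopamine at EC20 (50 nM final) for 90 min at 37 deg C. Beta-arrestin recruitment was read as luminescence after 1 h with detection reagent at ambient temperature.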
Sfp inh: Sfp phosphopantetheinyl transferase inhibition; Q9F4F7; Biochemical Sfp PPTase activity, qHTS; Potency, µM, inactives show max response, negative = inhibition, hits mostly inhibitors; 3.5% of 310,000 active; active = well fitted inhibition curve with a large enough effect; inconclusive = small, poorly fitted or top-dose-only effect, or another doubt; inactive = no such curve, though single readings can be large or run the other way;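 also: the enzyme is Sfp with the accession as filed and its product quenches rhodamine fluorescence; potency is read from the fitted curve at half-maximal effect; 0% = enzyme reaction without inhibitor and -100% = no enzyme wells; top concentration of the series not given in the record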
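Reaction rates are the 30-min fluorescence difference (ex 525, em 598 nm) in wells containing 15 nM Sfp, 5 uM rhodamine-CoA and 12.5 uM BHQ-2-YbbR at pH 7.6 with 10 mM MgCl2.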
gsp antagonist: gsp mutant antagonism. gsp-mutant cells, cAMP HTRF, 30 min; control for the full effect not named in the record. Potency, µM (titrated, usually from 76.9 µM), for inactives: at the top dose activity change, negative = inhibition, usual class: inhibitors. 0.4% of 340,000 active. AID 624288; active = falling curve of any shape with a large fitted effect; inconclusive = falling curve, mostly with a smaller effect; inactive = flat or rising curve; cell line not stated here;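 also: intracellular cAMP measured with PDE inhibitor Ro 20-1724 present during compound exposure; potency is read from the fitted curve at half-maximal effect; % is scaled to controls: 0 for no effect and ±100 for the full control effect; nearly all actives have a fitted effect of over 65% in size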
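Cells in G418 medium, seeded 16-24 h, 37C; buffer exchange to DPBS + 1 mM CaCl2, 0.5 mM MgCl2, 0.05% BSA; cpds in DMSO + […] (300 uM stock), 30 min 37C; HTRF cAMP detection.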
Menin-MLL FL inh: menin-MLL binding inhibition, fluorescein peptide | 290,000 tested, under 10 active | Fluorescence polarization, fluorescein-MLL peptide displacement from menin | AID 1766 | FP activity change, % at 61.4 µM; inconclusive = falling polarisation curve, or a change in total fluorescence; inactive = total fluorescence flat and polarisation flat or rising; no compound was filed as active; the % refers to the polarisation; negative = inhibition;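 also: % of control where 0% means no effect; inhibitors lower the polarisation; unlabelled MLL peptide was the positive control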
The depositor's hits bear a star; u = inconclusive; x = not tested or not shown; & = joins results of further samples; [ ] = dose if it differs, or a comment.

Compound,TRPV1 potentiator,ClpP mod,gsp ag,D2 PAM,Sfp inh,gsp antagonist,Menin-MLL FL inh
Fc1ccc(OCc2nn[nH]n2)c(F)c1,-7,-2.4%,-20%,-10,5%,5%,0.2
O=C(CNCC1CCCO1)Nc1ccc([N+](=O)[O-])cc1C(=O)Nc1ccccc1F (stereo not given),3,-0.5%,u,12,-6%,-16%,3.5
Cc1ccc(/C(N)=N/OC(=O)N2CCOCC2)cc1,2,0.1%,u,12,17%,-3%,-1.2
CC(=O)c1sc(NC(=O)c2cc3c(C)nn(-c4ccccc4)c3s2)nc1C,8,-2.4%,23%,-11,10%,-7%,3.9
O=C(c1cc2ccccc2cc1O)N1CCCC(C(F)(F)F)C1 (stereo not given),6,-5.0%,9%,-8,-12%,1%,x
CCN(C[C@H]1N[C@@](Cc2ccccc2)(C(=O)OC)[C@H]2C(=O)N(C)C(=O)[C@@H]12)C(=O)Nc1ccc(C(F)(F)F)cc1,x,0.4%,x,-11,x,-6%,x
COc1ccc(C(=O)Nc2ccc(S(=O)(=O)N(C)c3ccccc3)cc2)cc1,x,x,0%,-18,x,-25%,x
C#CCSc1nnc(C)c(C)n1,x,-1.8%,u,-6,x,6%,x
Cc1ccc(S(=O)(=O)N2CCCC(C(=O)NCc3cccnc3)C2)cc1Cl (stereo not given),-15,-1.3%,4%,-11,7%,-4%,-0.5
Cc1onc(-c2ccccc2Cl)c1C(=O)OCC(=O)Nc1cccc(S(=O)(=O)N2CCOCC2)c1,-26,x,11%[15.4 µM],-3,8%,-31%,8.0
Cc1cccc(N2CCN(C(=O)C3CCN(c4nnc(-n5cccc5)s4)CC3)CC2C)c1 (stereo not given),-8,-2.2%,-15%,18,-13%,28µM*,-1.4
Cc1nn(CCc2nn[nH]n2)c2nc(-c3ccc(C4CCCCC4)cc3)cc(C(F)(F)F)c12,8,x,15%[15.4 µM],13,9%,11µM*,4.3
CN(C)C(=O)CCC(=O)N1CCCCC1C(=O)Nc1ccc(Oc2ccccc2F)cc1 (stereo not given),4,x,-55%,-9,7%,-1%,-0.4
OCCCNc1ncnc2oc(-c3ccccc3)c(-c3ccccc3)c12,6,3.7%,-1%,5,-17%,u,0.8
N#Cc1nc(COc2ccccc2)oc1N1CCC(Cc2ccccc2)CC1,16,-5.6%,4%,-16,-25%,0%,1.7
CCC(=O)Nc1nc2ccccc2n1Cc1ccccc1Cl,-6,-7.8%,6%,-20,18%,-4%,3.2
COc1ccc(/C=N/Nc2nc(-c3cccnc3)nc3ccccc23)cc1OC,1,x,18%,16,-10%,-5%,1.6
Cc1cccc(NS(=O)(=O)c2ccc(C(=O)NCC(c3ccco3)N3CCCCC3)cc2)c1C (stereo not given),0,-1.4%,-2%[15.4 µM],-7,x,-12%,x
COc1cc(/C=C(\NC(C)=O)C(=O)NC(C)(C)C)ccc1OC(C)=O,-2,-14%,-1%,2,-7%,0%,2.1
O=C(Cc1ccccc1[N+](=O)[O-])NC1CC1,12,x,18%[15.4 µM],-3,8%,4%,-0.5
COc1ccc(N(C)C(=O)Cc2c(C(=O)O)[nH]c3ccccc23)c(OC)c1,-24,x,11%[15.4 µM],-5,14%,1%,-1.2
COc1ccc(CN(C)C(=O)c2cccc(S(=O)(=O)N3CCN(c4ccccc4)CC3)c2)c(OC)c1OC,u,-2.8%,-1%,-19,x,-22%,x
COc1ccc2c(c1OC)C(=O)N1C(C(=O)O)Cc3c([nH]c4ccccc34)C21 (stereo not given),1,u,-17%,-16,-5%,-9%,-11
CCC1CN(C(=O)Nc2cccc(C)c2)c2cc(C)ccc2O1 (stereo not given),-12,x,-32%,-5,12%,-23%,0.3
Cc1[nH]c(=O)[nH]c(=O)c1S(=O)(=O)N1c2ccc(F)cc2CCC1C (stereo not given),7,1.6%,u,-6,20%,-13%,0.6
Cc1ccc(C2=NN=C(NC(=O)C(F)(F)F)SC2)cc1,4,-0.6%,16%[15.4 µM],-22,u,-12%,-2.5
NS(=O)(=O)c1ccc(CCNC(=O)CCNC(=O)c2ccco2)cc1,-4,x,0%[15.4 µM],-4,10%,-7%,-3.3
Cc1ccc2c(SCC(=O)NCc3ccco3)nc(-c3ccc(F)cc3)nc2c1,18,1.8%,14%,-7,-1%,12%,2.3
Brc1ccccc1CN1CCC(Cc2ccccc2)CC1,18,-2.3%,-6%[15.4 µM],-24,-8%,2%,4.5
O=c1cc(CO)oc(C(Nc2ccccn2)c2ccsc2)c1O (stereo not given),-1,x,x,x,22µM*,x,2.9
O=S1(=O)CC=C(CSC(=S)NC2CCS(=O)(=O)C2)C1 (stereo not given),7,x,14%,-9,u,1%,-3.5
COc1cc(C2C(C#N)=C(N)N(N(C)C)C3=C2C(=O)CC(C)(C)C3)cc(OC)c1OC (stereo not given),7,x,2%,2,8%,-11%,-2.4
CCCC(CCC(=O)Nc1nccs1)C(=O)O (stereo not given),6,x,-2%[15.4 µM],-4,17%,15%,-6.4
O=C(O)c1cccc(S(=O)(=O)Nc2ccc3c(c2)OCO3)c1,-15,0.6%,0%,6,-14%,-7%,2.7
CC(=O)N1CCCC1C(=O)O (stereo not given),x,0.3%,x,-1,-19%,12%,-3.0
CCOc1cnc(-c2c(-c3c(F)cccc3Cl)noc2C)o1,-8,x,3%,2,0%,-2%,3.6
CCOC(=O)COc1cc(Br)c(C2NC(=O)NC(C)=C2C(C)=O)cc1OCC (stereo not given),3,-0.4%,4%,-7,-6%,-2%,0.8
Cc1ccc(C)c(NC(=O)c2cc3c([nH]c4ccccc43)c(C)n2)c1,19,0.1%,u,-8,1%,11%,4.0
O=C(CCl)Nc1cc2[nH]c(=O)[nH]c2cc1Br,11,x,-3%[15.4 µM],9,-18%,6%,-1.1
COc1cccc(CC(NC(C)=O)C(=O)NC2CCN(c3c4c(nc5ncnn35)CCC4)CC2)c1 (stereo not given),x,1.7%,10%[15.4 µM],-8,x,15%,x
CS(=O)(=O)Cc1ccc(C(=O)NNC(=O)c2cc(-c3ccccc3)n[nH]2)cc1,x,0.3%,-6%[15.4 µM],-8,x,12%,x
CCOc1cccc2cc(C(=O)NCc3ccc(C)cc3)c(=N)oc12,4,0.0%,u,-10,13%,3%,u
COc1nccnc1NS(=O)(=O)c1ccc(NC(=O)c2ccccc2Br)cc1,1,x,3%,1,2%,-14%,-0.6
CC(Sc1nnc(COc2ccc(Cl)cc2)n1Cc1ccco1)C(=O)N1CCNC1=O (stereo not given),-7,-0.3%,-43%[inhibitor],-8,x,-4%,x
COc1ccc(C2=CC3=C(Br)C(=O)C(C)(O)C(=O)C3=CO2)cc1 (stereo not given),27,-0.4%,u,-3,-24%&-3%,u,0.7&6.4
S=c1nccc(-c2ccc3c(c2)CCO3)[nH]1,23,x,26%[15.4 µM],-24,-24%,-7%,1.3
O=C(Nc1nc2ccccc2n1Cc1ccc(Cl)cc1)c1ccco1,2,-2.6%,-7%,8,-1%,2%,-0.5
Cc1ccc(NC(=O)c2ccco2)cc1C,-20,0.2%,19%,-6,11%,7%,0.1
O=C(CSc1nc2ccccc2c(=O)n1-c1ccccc1F)NC1CCS(=O)(=O)C1 (stereo not given),6,0.0%,14%,-3,x,16%,x
Cc1cc(-c2cccnc2)c(C#N)c(SCC#N)n1,-7,-0.9%,1%,5,0%,6%,4.6
CCOC(=O)c1ccc(NC(=O)Cn2cc3c(n2)CCC(C)C3)cc1 (stereo not given),4,-0.8%,0%,-3,16%,5%,1.2
COCc1cc(C)nc(OCC(=O)N/N=C/c2ccccc2)c1C#N,3,x,6%[15.4 µM],-1,14%,-16%,0.3
COc1ccc(CC(=O)NCCN2CCOCC2)cc1,14,0.3%,5%,-9,16%,10%,0.1
CCN(CC)CCCNc1nc(C)cc(COC)c1C#N,-28,-1.9%,-8%[15.4 µM],-8,-13%,5%,-7.9
OC(CN1CCN(c2ccc(F)cc2)CC1)c1ccc(Cl)cc1 (stereo not given),u,x,1%,-21,10%,9%,0.2
CCN(CC)S(=O)(=O)c1ccc2[nH]c(=O)cc(C(=O)NCC3CCCO3)c2c1 (stereo not given),6,x,2%[15.4 µM],2,x,8%,x
CCOC(=O)N1CCN(C(=O)C2CCN(S(=O)(=O)c3cc(C)ccc3OC)CC2)CC1,-3,x,u,-1,16%,-9%,0.0
COc1ccc(-c2nnc(SCc3nc4ccccc4s3)n2C(C)C)cc1,-12,-2.2%,0%,5,-7%,-22%,1.2
N#Cc1ccccc1OCC(=O)NC(=O)NCc1ccccc1,-1,x,-23%,-7,13%,4%,-0.1
Cc1cc(C(C)(C)C)c(OC(=O)[C@@H]2OC(c3ccccc3)=C[C@H]2c2ccccc2)c(C(C)(C)C)c1,-7,-0.1%,x,1,x,10%,x

(continued)
Compound,TRPV1 potentiator,ClpP mod,gsp ag,D2 PAM,Sfp inh,gsp antagonist,Menin-MLL FL inh
CCOCCCNC(=O)CCc1nnc2n(CCC(C)C)c(=O)c3ccccc3n12,-7,x,u,9,14%,1%,1.0
COc1ccc(CN(C)C(=O)c2cc(S(=O)(=O)N3CCCCCC3)ccc2OC)cc1OC,2,-3.4%,-22%,-2,8%,-6%,x
CC(C)CC(=O)Nc1ccc(C(=O)CN2C(=O)NC3(CCOc4ccccc43)C2=O)cc1 (stereo not given),-17,-5.0%,-24%,13,x,-1%,x
O=C(CN(C(=O)c1ccco1)c1cccc(F)c1)NCc1ccc(F)cc1,0,-2.3%,-8%,-14,7%,6%,-0.6
O=C(CN1CCN(Cc2ccccc2)CC1)N1CCCCCC1,-20,x,-3%[15.4 µM],-11,14%,2%,2.6
COc1ccc2nc(SCC(=O)NC3CC3)c(C#N)cc2c1,28,x,u,-2,0%,8%,0.7
